Assay outcomes as filed in PubChem BioAssay.
MLL AF4-AF9 inh – blocks AF4 peptide binding to human AF9; AlphaScreen, biotin-AF4 peptide binding to FLAG-AF9; inhibition, % at 10 µM; actives 0.47% (n = 350,000); AID 651704;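 active means every replicate reaching a set inhibition limit, whatever the replicate mean, cut at about 25% in these data; inconclusive means mean inhibition reaches that limit but some replicates miss it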;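 further: 0% = plate neutral control median and 100% = total signal loss; the record names both 10 and 1 µM as test concentration; the first replicate is given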
Target sequence (P42568 whole entry, looked up): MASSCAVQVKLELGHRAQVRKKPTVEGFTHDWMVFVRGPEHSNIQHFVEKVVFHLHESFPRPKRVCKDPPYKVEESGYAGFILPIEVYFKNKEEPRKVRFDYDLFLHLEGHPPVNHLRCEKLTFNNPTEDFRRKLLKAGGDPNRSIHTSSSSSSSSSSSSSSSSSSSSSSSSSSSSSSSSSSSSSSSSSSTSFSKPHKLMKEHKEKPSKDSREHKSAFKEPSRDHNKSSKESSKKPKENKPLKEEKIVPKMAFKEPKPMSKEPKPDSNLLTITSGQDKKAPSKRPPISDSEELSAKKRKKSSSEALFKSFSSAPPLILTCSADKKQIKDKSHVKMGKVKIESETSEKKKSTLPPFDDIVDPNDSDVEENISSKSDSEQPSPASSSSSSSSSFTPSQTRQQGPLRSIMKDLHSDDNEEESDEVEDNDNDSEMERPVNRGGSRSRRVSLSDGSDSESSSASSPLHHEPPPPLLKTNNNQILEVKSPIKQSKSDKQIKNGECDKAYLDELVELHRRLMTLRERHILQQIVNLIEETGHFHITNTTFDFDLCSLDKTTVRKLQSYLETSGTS
ALR inh – blocks human ALR sulfhydryl oxidase activity; P55789; purified ALR, DTT oxidation, H2O2 HRP-luminol luminescence; inhibition, % (no concentration beside the values); actives 3.8% (n = 290,000); AID 485317;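 active means mean and each replicate at 75% or more; inconclusive means only one of the two met; inactive means neither met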;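 further: stock transfer was 7.5 nL into about 7.5 µL; 0% = neutral wells and 100% = wells with inactivated enzyme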
Target sequence (P55789 whole entry, looked up): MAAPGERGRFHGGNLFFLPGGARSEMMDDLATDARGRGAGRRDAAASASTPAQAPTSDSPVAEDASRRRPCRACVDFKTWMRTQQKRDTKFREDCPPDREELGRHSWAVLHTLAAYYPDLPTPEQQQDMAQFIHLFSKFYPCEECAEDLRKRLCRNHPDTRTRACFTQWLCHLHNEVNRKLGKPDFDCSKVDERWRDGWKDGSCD
Calb FLC – affects C. albicans growth with fluconazole; C. albicans CaCi-2 (fluconazole-resistant clinical isolate) + fluconazole, Alamar Blue growth, 48 h; growth inhibition, % (concentration not given with the values); actives 0.57% (n = 300,000); AID 1979;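 active means most replicates above 75%; inconclusive means exactly half above 75%; inactive means most below 75%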;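 further: all wells also contain fluconazole at 8 µg/ml as a sub-toxic cotreatment; 0% = median of DMSO wells and 100% = median of geldanamycin control wells; wells of about 8 µL received 7.5 nL stock; the first replicate is given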
T cruzi inh – blocks replication of Trypanosoma cruzi; T. cruzi beta-gal in NIH3T3, luminescence, 90 h; inhibition, % (concentration not given with the values); actives 1.4% (n = 300,000); AID 1885;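 active means mean inhibition across valid replicates above about 55%, limit read from the data; inconclusive means mean below that limit but half or more replicates reach it; inactive means mean below it, under half of replicates reach it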;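 further: signal also drops with host cell toxicity which is not excluded here; 0% = plate median of DMSO wells and 100% = zero luminescence signal; higher percent means less beta-gal luminescence so fewer parasites; stock transfer was 50 nL into about 50 µL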
RanGTP-Impb inh – disruptors of Ran-importin-beta complex formation – biochemical, FRET, CFP-Ran, YFP-importin-beta, homogeneous, primary screen. AID 2216. inhibition, % (no concentration beside the values). actives 1.1% (n = 300,000). cell-free CFP-Ran/YFP-importin-beta FRET ratio;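 active means most replicates above 15%; inconclusive means exactly half above 15%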;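 further: 0% = DMSO wells and 100% = Ran loaded with GDP instead of GTP; wells of about 40 µL received 100 nL stock; the first replicate is given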
FGF22 binding – binders of recombinant human FGF22 by thermal shift; SYPRO orange fluorescence; percent of sucrose octasulfate shift, DMSO zero; calls only at 9.99 µM; actives 1.5% (n = 340,000); AID 651658;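 active means melting point raised past a set limit in the mean and every replicate; inconclusive means no clear call; three in four hits are not shown here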
Target sequence (Q9HCT0 whole entry, looked up): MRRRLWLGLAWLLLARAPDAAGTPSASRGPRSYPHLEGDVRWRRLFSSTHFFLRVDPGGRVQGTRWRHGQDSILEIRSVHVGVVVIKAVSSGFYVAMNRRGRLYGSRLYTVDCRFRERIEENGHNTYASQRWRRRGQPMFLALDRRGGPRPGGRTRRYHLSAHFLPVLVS
Beta apoptosis – beta cell apoptosis inhibition; actives 0.8% (n = 300,000); INS-1E cytokine-induced death, ATP luminescence, 48 h; percent of positive-control rescue, neutral wells zero; protection from apoptosis, % (concentration not given with the values);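 active means all replicates at 75% or more, or half of them and the mean; inconclusive means half reach 75% but not the mean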;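 further: 0% = cytokine-treated negative control wells and 100% = positive control rescue; higher means more ATP so stronger rescue from cytokine killing; wells of about 40 µL received 100 nL stock; the first replicate is given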
Ecoli rRNA inh – selective bacterial rRNA inhibition in E. coli; actives 1.6% (n = 350,000); E. coli WT GFP vs humanized-ribosome RFP mutants, fluorescence, 24 h; stronger effect = lower value; DMSO median 0, no signal -100; GFP signal change (wild-type ribosome), % (test concentration not listed);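 active means significant combined selectivity score with lowered wild-type GFP, culture density cut under 30%, mutant RFP and density less affected; inactive means any of these conditions unmet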; further: one replicate is shown; some compounds called inactive have numbers as strong as hits
Ecoli rRNA inh OD600 – second read-out of Ecoli rRNA inh, no call of its own (marks repeat the call); OD600 change, %; measured here: OD600 growth;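 optical density of the mix in the first replicate; 0 = DMSO median and -100 = no signal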
Ecoli rRNA inh RFP – second read-out of Ecoli rRNA inh, no call of its own (marks repeat the call); RFP signal change, %; measured here: RFP humanized mutant strains;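 first replicate; 0 = DMSO median and -100 = no signal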
* = called active by the depositor; i = inactive; ? = inconclusive; . = not tested or not shown. This is a subset (hit frequency here may not be typical).

SMILES	MLL AF4-AF9 inh	ALR inh	Calb FLC	T cruzi inh	RanGTP-Impb inh	FGF22 binding	Beta apoptosis	Ecoli rRNA inh	Ecoli rRNA inh OD600	Ecoli rRNA inh RFP
C[C@]12CCC3C(CC[C@H]4C[C@H](O)CC[C@]34C)C1C[C@@H](O)[C@@H]2O (some centres not stated)	-1.1	-2	.	.	.	i	0	-8	-16	0.5
C/C=C(\C)C(=O)N[C@@H](c1ccccc1)[C@@H](O)C(=O)O[C@H]1C[C@@]2(O)[C@@H](OC(=O)c3ccccc3)C3[C@](C)(C(=O)[C@H](O)C(=C1C)C2(C)C)[C@@H](O)C[C@H]1OC[C@@]31OC(C)=O (some centres not stated)	-1.9	-11	4	53	-0.3	i	.	3	19	18
Cc1c(C)c2ccc(OCC(=O)N3C[C@H]4C[C@@H](C3)c3cccc(=O)n3C4)cc2oc1=O	-3.3	.	-3	5	-2.5	i	-1	.	.	.
Cc1ccc(C2=NCC(=O)N(CC(=O)N3CCCCC3)c3sc(C)c(C)c32)cc1	.	2	-27	10	-3.2	.	9	.	.	.
N=c1sc2c(n1Cc1ccccc1)CCCC2	4.1	0	-19	34	2.5	i	.	-2	-4	0.3
CC(=NCCO)c1c(O)n(C)c(=O)n(C)c1=O	2.3	-12	3	-17	2.9	i	1	9	4	1.3
O=C1CN=C(c2ccccc2)c2oc3ccc(Br)cc3c2N1	.	0	2	5	?	.	2	.	.	.
Cc1cccc(NC(N)=S)c1	-28	-13	10	0	-4.7	.	-2	7	-2	1.2
CC(=O)N1N=C2C3CCN(CC3)C2C1c1cccc2ccccc12 (configuration not stated)	-0.2	1	-3	-13	?	i	-2	5	13	-5.7
COC(=O)C1=C(c2cccc(OCc3ccccc3)c2)C[C@@H]2CC[C@H]1N2C(=O)NNCc1ccccc1	7.5	-3	.	.	.	i	0	9	6	0.6
COc1cccc(CNC(=O)CCC(=O)N2C[C@H]3C[C@H](C2)c2cccc(=O)n2C3)c1OC	0.0	-5	-2	-11	5.0	i	.	0	12	-9.4
CCOc1ccc(NC(=O)CCNC(=O)N2C[C@H]3C[C@@H](C2)c2cccc(=O)n2C3)cc1	-2.1	-27	4	-2	-4.2	i	.	.	.	.
CNCCc1ccc(O)c(O)c1	0.9	97*	.	-4	0.3	i	-8	18	18	6.7
CCCCCCN=C(C)c1c(O)n(Cc2ccccc2)c(=O)[nH]c1=O	.	-6	-3	?	-0.5	.	-1	.	.	.
CCCCOC(=O)C1=C(N)OC2=C(C(=O)CCC2)[C@]12C(=O)N(C)c1ccccc12	.	1	-8	-2	1.2	.	-6	.	.	.
COc1ccc(NC2=NC(C)(C)CS2)cc1	-4.3	34	-8	-23	-3.1	i	3	7	-3	-2.6
Cc1cc(OCc2nn[nH]n2)c2c3c(c(=O)oc2c1)CCCC3	.	57	-11	21	1.8	.	-3	.	.	.
Cc1ccc(OCC(=O)N2CCN(Cc3ccc4c(c3)OCO4)CC2)cc1C	-1.1	-29	-6	13	-2.4	i	.	-28	-39	-5.3
O=c1c(C=Nc2cccnc2Cl)c(O)n(CCCCl)c(=O)n1C1CCCCC1	-1.5	-2	5	4	-2.5	.	3	4	9	8.1
Cc1nonc1-c1nc(-c2nonc2N)n[nH]1	.	26	1	6	2.2	.	1	.	.	.
C[C@]12CCC(=O)C=C1CC[C@@H]1[C@@H]2CC[C@]2(C)C(=O)CC[C@@H]12	3.1	.	-20	0	-1.9	i	.	-26	-40	1.6
NC(=O)C1(N2CCCCC2)CCN(Cc2ccccc2)CC1	.	-14	1	4	-3.1	.	3	15	3	5.7
COc1ccc(CCNCc2ccsc2)cc1OC	2.4	-8	-38	3	4.6	i	.	11	8	-0.2
Cn1c(O)c(C=Nc2ccc(F)cc2)c(=O)[nH]c1=O	3.5	-6	1	2	0.2	i	-2	12	8	-0.4
COc1ccc(OCC#CCN2CCCCCC2)cc1	7.3	1	-34	4	-3.6	i	-5	17	11	-0.6
COC(=O)C1=C(c2ccc(C(C)=O)cc2)C[C@@H]2CC[C@H]1N2C(=O)NCc1ccc2c(c1)OCO2	4.5	1	.	.	.	i	-3	0	1	5.0
C=CCn1c(O)c(C(C)=NCCCN2CCOCC2)c(=O)[nH]c1=O	0.5	0	-2	0	10	i	-8	14	9	-4.0
O=C(CCC(=O)N1CCC2(CC1)OCCO2)Nc1nnc(C(F)(F)F)s1	-0.1	-7	-11	-13	-1.5	i	-9	12	0	-0.2
COc1ccccc1Cn1c(SCC(=O)C(C)(C)C)nc2cc(C(=O)N3CCC4(CC3)OCCO4)ccc2c1=O	.	-40	-7	40	5.0	.	8	.	.	.
COc1ccccc1-n1c(/C=C/c2ccccn2)nc2ccccc2c1=O	5.8	-1	14	29	-3.1	i	1	-10	3	2.2
Cc1ccc(CN2CCSc3ccc(C(=O)N4CCC5(CC4)OCCO5)cc32)cc1	1.9	80*	-3	-5	1.5	i	-2	-26	-51	-17
CC1(C)C(C(=O)NCc2ccco2)C1(C)C	.	-2	-7	-8	-0.4	.	-1	.	.	.
O=P(C(c1ccc2c(c1)OCO2)N1CCOCC1)(N1CCOCC1)N1CCOCC1 (configuration not stated)	.	-10	-1	-1	3.5	.	0	.	.	.
CC1(C)C2([N+](=O)[O-])CNCC1([N+](=O)[O-])CNC2	.	-3	7	-2	3.4	.	-4	.	.	.
CCCCn1c(=O)c(C(=O)NCc2ccccc2Cl)c(O)c2ccccc21	0.3	-3	-6	7	4.4	i	.	10	6	-0.8
COc1ccccc1-n1c(-c2cccs2)nc2ccccc2c1=O	4.2	6	6	-5	3.5	.	3	-20	-30	-3.3
CCOC(=O)C1CCN(C(C)C(=O)c2c(C)[nH]c3cc(C)ccc23)CC1 (configuration not stated)	.	-11	-3	22	-1.1	.	-8	.	.	.
CC(=O)Nc1cc(C(=O)N2CCC3(CC2)OCCO3)ccc1Sc1ccc(F)cc1	-0.9	.	-13	.	.	i	0	9	8	3.4
Clc1ccc2c(c1)C(c1ccccc1Cl)=NCc1nncn1-2	.	-2	2	2	?	.	-8	.	.	.
Cc1cccc(C)c1OP(N)(=O)Oc1c(C)cccc1C	.	-5	0	10	-2.5	i	-1	-4	-5	-3.5
CCCc1c(C)nc(-c2ccc(C)cc2)nc1OC(=O)N(C)C	-2.7	-1	-2	-8	-1.5	i	-4	-9	-4	-3.0
CC(C)NC(=O)Cn1cc(C(=O)c2ccccc2F)c2ccccc21	.	-3	-8	-12	-1.8	.	-3	.	.	.
Cc1cccc(-n2c(/C=C/c3ccc([N+](=O)[O-])o3)nc3ccccc3c2=O)c1	7.9	.	-2	46	-2.5	i	-13	19	9	0.7
O=C1NC(=O)C(=Cc2coc3ccc(O)cc3c2=O)C(=O)N1	-2.7	50	6	-1	-2.2	i	-6	17	13	-0.3
COc1ccccc1N1CCN(Cc2cccc(OC)c2O)CC1	.	73	-3	-3	-0.6	.	-2	8	3	-1.3
COc1cc2c(cc1OC)-c1c3c(cc4c1[C@@H](C2)N(C)CC4)OCO3	20	-38	-14	29	-0.7	i	61	-28	-28	-11
COP(=O)(OC)C(NC(=O)C(C)(C)C)=C(Cl)Cl	.	-2	-20	-3	?	.	0	.	.	.
O=C(/C=C/c1ccc2c(c1)OCO2)c1c(O)n(CCc2ccccc2)c(=O)[nH]c1=O	0.9	47	-5	-3	1.2	i	-12	3	5	4.0
COP(=S)(OC)SCN1C(=O)c2ccccc2C1=O	-4.8	.	.	2	-2.4	i	.	9	15	-1.6
CC1(C)Cc2c(sc3c2C(=O)NC(c2cccnc2)N3)CO1 (configuration not stated)	.	19	26	-6	4.9	.	1	.	.	.
COc1ccc(OCC(=O)N2CCN(CC3CC4C=CC3C4)CC2)cc1 (configuration not stated)	.	-10	.	24	1.2	.	-4	.	.	.
CCOc1cc2c(cc1OCC)-n1cccc1C(c1ccc(OC)c(O)c1)NC2 (configuration not stated)	17	4	16	23	4.7	i	2	-1	-8	1.4
COc1ccc2nc(NC(=O)CCc3nc(C4=CCN(C)CC4)no3)sc2c1	.	-6	1	2	-4.4	.	0	.	.	.
O=c1[nH]c(=O)n(C2CCCCCC2)c(O)c1C=NC1CCN(Cc2ccccc2)CC1	.	17	15	65*	-2.5	.	2	.	.	.
C[C@H]1CC[C@H]2NCCN[C@H]2C1	-32	-4	6	-14	-4.2	i	-3	7	1	-6.1
O=C1NC(=O)N(c2ccccc2)C(=O)/C1=C\c1ccc([N+](=O)[O-])o1	.	-33	-4	-5	-1.7	.	-2	.	.	.
Nc1ccc2nonc2c1[N+](=O)[O-]	-1.5	-25	1	-7	-35	i	-1	19	9	2.1
Cc1ccccc1N1C(=O)NC(=O)/C(=C\c2ccc3c(c2)CCCN3Cc2ccccc2)C1=O	9.8	6	2	-5	2.8	i	3	3	6	9.4
CN1CCN(c2ccc(NC(=O)C(C)(C)C)cc2)CC1	.	1	2	-7	-2.7	.	1	.	.	.
CCn1c(O)c(C=Nc2cc(Cl)ccc2Cl)c(=O)n(CC)c1=O	.	-12	16	-10	1.9	.	0	.	.	.

The listing continues.
SMILES	MLL AF4-AF9 inh	ALR inh	Calb FLC	T cruzi inh	RanGTP-Impb inh	FGF22 binding	Beta apoptosis	Ecoli rRNA inh	Ecoli rRNA inh OD600	Ecoli rRNA inh RFP
CC(N)Cc1c[nH]c2ccc(OCc3cccs3)cc12 (configuration not stated)	17	-9	.	19	0.7	i	2	.	.	.
Cc1ccc(NC(=O)c2ccc(C)c(S(=O)(=O)N3CCCCC3)c2)nc1	6.6	2	4	13	1.0	i	0	-7	-6	6.3
C[C@]12CCC3C(CC[C@H]4C[C@@H](O)CC[C@]34C)C1C[C@@H](O)[C@H]2O (some centres not stated)	-6.4	2	.	.	.	i	0	-1	2	0.1
CC1CN(C(=O)CCC(=O)N2CCC3(CC2)OCCO3)c2cc(Cl)ccc2O1 (configuration not stated)	-0.6	0	0	8	1.1	i	0	2	-6	-0.2
CC(=NCC1CCCO1)c1c(O)n(-c2ccc(C)cc2)c(=O)[nH]c1=O (configuration not stated)	.	-6	-9	-3	-5.6	.	1	.	.	.
Cc1cc(N2CCCC2)ccc1C=C(C#N)C#N	-8.9	-4	-10	-13	-0.4	i	2	4	6	24
Cc1cc(OCC(=O)N2CCC(C(=O)O)(c3ccccc3)CC2)c2c(C)c(C)c(=O)oc2c1	2.4	7	1	-4	4.9	i	-8	.	.	.
C=CCn1c(O)c(C(C)=NCc2cccnc2)c(=O)[nH]c1=O	.	1	-8	-1	-0.3	.	-4	.	.	.
CCCCOc1ccc(CCN)cc1Cl	11	26	-5	5	-2.9	i	2	-6	-2	-4.3
CCC(=Nc1cc(OC)ccc1OC)c1c(O)[nH]c(=O)[nH]c1=O	.	-12	-3	4	-0.5	.	6	.	.	.
O=C(COc1ccccc1)N1CCN(C2CCCC2)CC1	.	-5	-3	4	1.4	.	-9	.	.	.
O=C(c1ccccc1)c1cn(CC(=O)N2CCCC2)c2ccccc12	-4.5	-7	-1	-1	-5.3	i	-1	2	4	6.9
COC(=O)C1=C(N)Oc2c(c(=O)oc3ccccc23)C1c1cccnc1 (configuration not stated)	.	24	2	-9	-2.3	.	-8	.	.	.
COC(=O)C1=C(c2cccc(OCc3ccccc3)c2)C[C@@H]2CC[C@H]1N2C(=O)NCc1ccc(C(C)(C)C)cc1	1.0	4	.	.	.	i	15	4	2	-7.5
